Compound activity from PubChem BioAssay.
Bead autofluor: compound fluorescence in toxin protease inhibitor counterscreen. compound autofluorescence counterscreen, microsphere flow cytometry; active compounds read high. fluorescence intensity (no concentration beside the values). hit rate 3.1% among 360,000. AID 624483;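 active = at least 3 SD above the mean of all compounds, about 16000 in these data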;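 also: 100 nL of 1 mM stock went into each well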
* = called active by the depositor. These rows are one share of the data; the hit share may differ from the screen's.

SMILES	Bead autofluor
COc1ccc2nc(-c3ccc(CN4CCC(n5c(=O)[nH]c6ccccc65)CC4)cc3)c(-c3ccccc3)nc2c1	6346
Cc1cc(OC(=O)Nc2ccccc2)ccc1Cl	3858
CCc1nc2ccc(C(=O)NC(C)(C)C)cn2c1N(CC)Cc1cccc(Br)c1	4071
COc1ccc(C(=O)NCC(=O)OCC(=O)c2c[nH]c3ccccc23)cc1	3480
COc1ccc(-c2[nH][nH]c(=O)c2NC(=O)c2ccc([N+](=O)[O-])cc2)cc1	4211
Cc1cc(C)c(C)c(S(=O)(=O)N2CCNC(=O)C2)c1C	2920
Cc1cc2nc(C3CCCCC3)c(Cc3cccc(Cl)c3)n2c(C)c1Br	5677
CCN(CC)C(=O)C1=C(C)N(Cc2ccc(OC)cc2)C(=O)C(CC(=O)NCCCCc2ccccc2)C1 (configuration not stated)	2976
CC(=O)c1cccc(-c2ccnc3c2CC(C(=O)Nc2ccc(Cl)c(C(F)(F)F)c2)O3)c1 (configuration not stated)	3787
O=C(OCc1cn([C@@H]2C[C@H](c3ccc(Cl)cc3)N(CC3CCCCC3)C[C@H]2O)nn1)c1ccccc1	3383
CC1(C(=O)NS(=O)(=O)C2CC2)CCCN(C(=O)c2ccc(F)c(Cl)c2)C1 (configuration not stated)	3452
O=C(c1ccccc1)N1CCN(c2cc(-c3ccccc3)nc3cc(-c4cccc(Cl)c4)nn23)CC1	3922
COc1cc(C=NN2CCCCC2)cc(OC)c1OC	3552
Cc1ccc(S(=O)(=O)N2[C@H](C(C)C)[C@H]3[C@H]4C(=O)N(c5ccccc5)C(=O)[C@H]4CC(=O)[C@H]3[C@@H]2c2ccccc2)cc1	4254
COCCNC(=O)C1(C)CCCN(C(=O)c2ccc(C#N)cc2)C1 (configuration not stated)	3073
CC(=O)Nc1cnc(-c2ccccc2C(F)(F)F)cn1	3493
N#Cc1cccnc1N1CCN(C(=O)c2[nH]c(C(F)(F)F)nc2-c2ccccc2)CC1	5982
C[C@H](CO)N1C[C@H](C)[C@@H](CN(C)Cc2ccc(-c3ccccc3)cc2)OCc2cnnn2CCCC1=O	3450
O=C(c1cccs1)N1C[C@@H](n2cc(-c3ccc(F)cc3)nn2)[C@H](O)C[C@@H]1c1ccccc1	3950
CCOC(=O)[C@]12CCC=C1N(Cc1ccco1)C(=O)[C@H](CC(=O)NCCC(C)C)C2	5989
O=C(Nc1cc(Cl)ccc1N1CCOCC1)c1ccc2c(c1)OCO2	3637
O=C(COC(=O)c1cccc(F)c1)Nc1cccc(S(=O)(=O)N2CCCCC2)c1	3974
C#CCNC(=O)C[C@@H]1C[C@@]2(C(=O)OC)CCCCC=C2N(CCC2=CCCCC2)C1=O	4356
NC(c1csc(Nc2ccc(C(=O)c3ccccc3)cc2)n1)c1ccccc1Cl (configuration not stated)	4079
Cc1ccc([C@H]2N[C@]3(CCCN(Cc4ccc(C(F)(F)F)cc4)C3=O)[C@H]3C(=O)N(Cc4ccccc4)C(=O)[C@@H]23)cc1	3721
CC1OC(CCc2cccc(Cl)c2)Cc2[nH][nH]c(=O)c21 (configuration not stated)	6067
COc1ccc(OC)c2c1CCC1(C2)NC(=O)NC1=O (configuration not stated)	3948
COc1ccc(CC(=O)NCCc2ccc3c(c2)OCO3)cc1OC	3914
O=C(COC(=O)C1COc2ccccc2O1)c1ccccc1 (configuration not stated)	3035
CC(=O)Nc1ccc(S(=O)(=O)N(CC(=O)NCC2CCCO2)Cc2ccccc2Cl)cc1 (configuration not stated)	3757
COc1cccc(C(C)(O)c2nc(/C=C/c3ccccc3)cs2)c1 (configuration not stated)	3469
CCNC(=O)C1(C)CCN1CCS(=O)(=O)c1ccc(C)cc1 (configuration not stated)	3650
Cc1cn([C@H]2C[C@H](O)[C@@H](/C=C/C(=O)NCCc3ccc4c(c3)OCO4)O2)c(=O)[nH]c1=O	5537
CCCC(=O)N1CCC1(C)C(=O)NCc1ccc(SC)cc1 (configuration not stated)	4002
CN(Cc1cccc(-c2ccncc2)c1)C(=O)Oc1ccccc1Cc1ccccc1	5665
CC1=C(C(=O)N2CCOCC2)CC(CC(=O)NC2CCCC2)C(=O)N1CCCN1CCCC1=O (configuration not stated)	3593
CCOC(=O)C(=O)N(C)c1c(CC)nc2c(OCc3ccccc3C)cccn12	3501
COc1cc(CNC(=O)c2cc(-c3ccc(F)cc3OC)n[nH]2)cc(OC)c1	2906
Cc1ccc(S(=O)(=O)N2C[C@H]3n4c(=O)ccc(=O)n4C[C@H](OC(=O)Nc4cccs4)[C@@]3(O)C2)cc1	3813
CCOC(=O)C1(C)CCN1C(=O)c1cc(OC)c(OC)c(OC)c1 (configuration not stated)	2942
O=C(NCc1ccccn1)C1CCN(C2CCN(Cc3cccc(F)c3)CC2)CC1	7280
Cc1ccc(CN2CCC[C@]3(N[C@H](c4ccc(C)cc4)[C@@H]4C(=O)N(C)C(=O)[C@@H]43)C2=O)cc1	2988
O=C(NCC1CCCCC1)c1csc([C@@H]2C[C@H](O)[C@@H](CO)O2)n1	4094
COc1cccc(C(O)c2nc(-c3cccc(C(F)(F)F)c3)cs2)c1 (configuration not stated)	4070
CC(O)(c1cccnc1)c1nc(-c2ccoc2)cs1 (configuration not stated)	3904
COc1ccc(NC(=O)Cn2c([N+](=O)[O-])cnc2C)c(OC)c1	2954
CC(=NO)c1cc(Br)c2cccc3c2c1CC3	3301
CC1(C(=O)NS(=O)(=O)c2ccc(C#N)cc2)CCN1C(=O)CC1CCCC1 (configuration not stated)	2996
CCCS(=O)(=O)NC(=O)C1(C)CCCN(C(=O)c2ccccc2OC)C1 (configuration not stated)	3785
CCOC(=O)C1(C)CCCN(C(=O)CCc2ccccc2)C1 (configuration not stated)	3749
Cc1ccc(CNC(=O)c2ccc(S(=O)(=O)N3CCCC3)cc2)cc1	3850
O=C1C(c2ccccc2)CN1Cc1ccccc1 (configuration not stated)	5475
CCCCN(C)C(=O)c1sc(=O)n(Cc2c(C)noc2C)c1C	4130
CC1CCN(S(=O)(=O)c2cc(C(=O)N3CCN(c4ccccc4)CC3)ccc2Br)CC1	3458
COc1cc(OC)cc(OC2(C)CCN(Cc3ccc(OC(C)C)cc3)C2)c1 (configuration not stated)	3872
CC1(C(=O)NS(=O)(=O)Cc2cccc(Cl)c2)CCN1C(=O)Cc1ccc(Cl)cc1Cl (configuration not stated)	3612
Nc1ccn([C@@H]2O[C@H](C(=O)N(CCC3=CCCCC3)CC3CC3)[C@@H](O)[C@H]2O)c(=O)n1	5435
OC(c1ccc(Cl)cc1)c1ncc(-c2ccc(Cl)cc2)[nH]1 (configuration not stated)	3846
CC1C(=O)N(Cc2cn(Cc3ccco3)nn2)CCS(=O)(=O)N1Cc1ccc(-c2cccnc2)cc1 (configuration not stated)	5794
CCc1nc2c(OCCOc3ccc(F)cc3)cccn2c1N(C)C(=O)C(C)C	3822

(continued)
SMILES	Bead autofluor
C#Cc1ccc(NC(=O)C2(C)CCN2C(=O)C2(c3ccccc3)CC2)cc1 (configuration not stated)	3620
CCCCCC(=O)OCc1ccc(C2=CC(=O)CC(C)(C)C2=O)cc1	3816
COC(=O)c1ccc2nc(-c3ccc(C#N)cc3)c(Cc3ccsc3)n2c1	6257
CC(=O)NC(c1ccccc1)c1nc(-c2csc3ccccc23)cs1 (configuration not stated)	3364
COc1cccc(CN2CCC2(C)C(=O)Nc2ccc3c(c2)CCN3C(C)=O)c1F (configuration not stated)	3875
O=C(NCc1nnnn1-c1ccc(F)cc1)c1cc2ccccc2o1	3696
OC(c1cccc(Cl)c1)c1nc(-c2ccc(Cl)cc2)cs1 (configuration not stated)	3308
O=C(Nc1ccccc1C(=O)Nc1nccs1)c1ccccc1	5607
O=C(Nc1cccc(C(F)(F)F)c1)c1csc([C@H]2C[C@H](O)[C@@H](CO)O2)n1	3540
CCOc1ccc(CCNS(=O)(=O)c2c(C)nc3sccn3c2=O)cc1OCC	5700
Nc1nc2c(ncn2[C@@H]2O[C@H](CNCc3cnc(N4CCOCC4)s3)[C@@H](O)[C@H]2O)c(=O)[nH]1	4658
CCN(CC)C(=O)c1cccc(-c2csc(C(O)c3ccccc3)n2)c1 (configuration not stated)	3861
CC1(Oc2cccc(C#N)c2)CCN(Cc2ccc(-c3ccccn3)cc2)C1 (configuration not stated)	2947
Cc1ccc(CS(=O)Cc2ccc(C(=O)N3CCN(c4cccc(C)c4C)CC3)o2)cc1 (configuration not stated)	3985
Cc1ccc([C@H]2C[C@@H](O)[C@H](n3cc(COC(=O)c4ccccc4)nn3)CN2CC2CCCCC2)cc1	2931
O=C(NCc1ccccc1)Nc1nnc([C@@H]2C[C@H](O)[C@@H](CO)O2)s1	3413
Cc1cc(C)c(S(=O)(=O)N2CCOC23CCN(S(C)(=O)=O)CC3)c(C)c1	3444
COc1ccc(C(=O)C2CCCN(C(=O)Cn3nc(C)nc3C)C2)cc1F (configuration not stated)	3959
COc1ccccc1-c1cnc(C(O)c2cccc(CN3CCCCC3)c2)[nH]1 (configuration not stated)	3764
CCCNC(=O)C1(C)CCCN(Cc2cc(-c3ccccc3)n(C)n2)C1 (configuration not stated)	3370
COC(=O)C1CCN(S(=O)(=O)CCNC(=O)c2ccccc2)CC1	3532
O=C(Nc1cccc2ccccc12)c1csc([C@@H]2O[C@H](CO)[C@H](O)[C@H](O)[C@H]2O)n1	3135
CC1(C(=O)NS(=O)(=O)c2ccc(F)cc2F)CCN1C(=O)CC1CCCC1 (configuration not stated)	3519
C[C@@H]1CN([C@H](C)CO)C(=O)c2c(c3ccccc3n2C)-c2ccccc2CO[C@H]1CN(C)Cc1ccc2c(c1)OCCN2C	3743

Four entries from above, field by field:
COC(=O)C1CCN(S(=O)(=O)CCNC(=O)c2ccccc2)CC1
  Bead autofluor: 3532

O=C(Nc1cccc2ccccc12)c1csc([C@@H]2O[C@H](CO)[C@H](O)[C@H](O)[C@H]2O)n1
  Bead autofluor: 3135

CC1(C(=O)NS(=O)(=O)c2ccc(F)cc2F)CCN1C(=O)CC1CCCC1 (configuration not stated)
  Bead autofluor: 3519

C[C@@H]1CN([C@H](C)CO)C(=O)c2c(c3ccccc3n2C)-c2ccccc2CO[C@H]1CN(C)Cc1ccc2c(c1)OCCN2C
  Bead autofluor: 3743

(more compounds)
SMILES	Bead autofluor
COc1cccc(C(O)c2nc(-c3cccc4cccnc34)cs2)c1 (configuration not stated)	3766
Cc1ccccc1C(C)(O)c1cnc(C)n1Cc1ccccc1 (configuration not stated)	3824
CCN(C(=O)COC(=O)CNS(=O)(=O)c1ccc(C)cc1)C1CCS(=O)(=O)C1 (configuration not stated)	2962
Cc1ccc(Cc2c(-c3ccc(Cl)cc3)nc3ccc(Cl)cn23)cc1	3688
Clc1cccc(Cc2c(-c3ccccc3)nc3c4ccccc4ccn23)c1	6044
COc1ccc(NC(=O)c2cc(C3CCCCN3C(=O)C3CC3)on2)c(C)c1 (configuration not stated)	3458
Cc1noc(C)c1NC(=O)N(C)C[C@@H]1OCc2cnnn2CCCC(=O)N([C@@H](C)CO)C[C@H]1C	3748
COc1cc(-c2coc3c(C(=O)NCc4ccc(N(C)C)cc4)cccc23)ccc1O	3764
CSc1ncccc1C(=O)OCC(=O)N(C)Cc1ccc(C)cc1	3975
COc1ccc(C(N)c2csc(NC(=O)Nc3ccccc3C(C)(C)C)n2)cc1 (configuration not stated)	3019
Cc1ccc(CN2C(=O)CCC2(C)c2nnnn2-c2ccc3c(c2)OCCO3)cc1 (configuration not stated)	5983
CCCCn1nnnc1C1(C)CCC(=O)N1CCc1c[nH]c2ccccc12 (configuration not stated)	5898

For convenience, some entries already given:
SMILES	Bead autofluor
COc1cccc(C(O)c2nc(-c3cccc4cccnc34)cs2)c1 (configuration not stated)	3766
Cc1ccccc1C(C)(O)c1cnc(C)n1Cc1ccccc1 (configuration not stated)	3824
CCN(C(=O)COC(=O)CNS(=O)(=O)c1ccc(C)cc1)C1CCS(=O)(=O)C1 (configuration not stated)	2962

More results follow:
SMILES	Bead autofluor
CCCC[C@@H]1CNC(=O)C(=O)N1CCCC	4032
O=C(NCCNC(=O)c1ccc(-c2cccc(Cl)c2)o1)c1cnccn1	4102
Cc1coc2c(C)c3oc(=O)c(CCC(=O)N[C@H](C(=O)O)C(C)C)c(C)c3cc12	3171
COc1ccc(C(C)(NC(C)=O)c2nc(-c3ccncc3)cs2)cc1 (configuration not stated)	3773
CC(O)(c1ccc(F)c(F)c1)c1nc(/C=C/c2ccccc2)cs1 (configuration not stated)	3825
O=C(Nc1ccc(C(=O)N2CCN(c3ccncc3)CC2)cc1)c1ccc(Br)o1	5941
COC(=O)N1Cc2ccccc2-n2nncc2C1	3462
CC(=O)NC(c1ccc(F)c(F)c1)c1nc(-c2ccc(F)c(Cl)c2)cs1 (configuration not stated)	3894
CSCCC(c1nnnn1C1CCCCC1)N1CCN(C/C=C/c2ccccc2)CC1 (configuration not stated)	6254
COc1ccccc1/C=N/Nc1nc(C)cc(=O)[nH]1	2987
CC(=O)Nc1ccc(C(=O)OCC(=O)NC2CCCCCC2)cc1	4336
COc1ccc(CC(N)c2csc(NC(=O)NC(c3ccccc3)c3ccccc3)n2)cc1 (configuration not stated)	3608
C[C@H](O)[C@@H]1CN2CCc3c([nH]c4ccccc34)[C@@H]2C[C@@H]1N(C)C(=O)Nc1ccc(Br)cc1	5557
COc1ccc(C(=O)N(c2c(C)cccc2C)C(COC(C)=O)COC(C)=O)cc1	4476
C#C[C@]1(O)CC[C@H]2[C@@H]3[C@H](O)C[C@H]4C[C@@H](O)CC[C@]4(C)[C@H]3CC[C@@]21C	3831
